RVFV N-RNA inh: inhibitors of Rift Valley Fever Virus nucleocapsid-RNA interaction; P21700; RVFV N-RNA binding, fluorescence polarization; stronger effect = lower value; % bound, % (test concentration not listed); 0.1% of 20,000 active; AID 651828;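 active means between 0 and 58% in either replicate with normal brightness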;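 further: 100 nL library stock added to about 12 µL; 100% = protein and probe without compound and 0% = probe alone; numbers are from one replicate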
Target sequence (P21700 whole entry, looked up): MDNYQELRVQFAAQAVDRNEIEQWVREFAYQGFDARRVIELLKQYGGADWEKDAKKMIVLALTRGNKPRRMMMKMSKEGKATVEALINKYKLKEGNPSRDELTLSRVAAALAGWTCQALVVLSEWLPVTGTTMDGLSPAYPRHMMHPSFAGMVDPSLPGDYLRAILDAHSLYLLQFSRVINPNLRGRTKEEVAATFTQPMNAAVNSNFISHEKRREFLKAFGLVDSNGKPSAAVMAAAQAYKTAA
Starred values were filed as active, the others as inactive; & = joins results of further samples. This is a subset; rates above refer to the full screens.

SMILES	RVFV N-RNA inh
N#CC1=C(N)OC2=C(C(=O)CCC2)C1c1cccnc1 (stereo not given)	90
Cc1ccc(C)n1NC(=O)c1cccc(Br)c1	91
O=C(OCc1ccccc1)c1cccc(-c2nnc(-c3ccccc3)o2)c1	92
CN(C)c1ccc(/C=C2/C(=O)NC(=O)N(C(C)(C)C)C2=O)cc1	99
N#C/C(=C\c1cn(-c2ccccc2)nc1-c1cccs1)c1cccc(C#N)c1	96
O=C(NC(Cc1ccccc1)C(=O)O)C1CCCCC1 (stereo not given)	93
CC(C)C(=O)N1C(=O)c2cccc3c(S(=O)(=O)N(C)C)ccc1c23	97
CC(=O)N1CCN(c2ccccc2NC(=O)COc2ccccc2)CC1	92
CCN(CC)C(=O)CSc1nc(-c2ccccc2)cc(=O)[nH]1	93
Cc1cc(C)c2c(n1)CC(C)(C)CC2=O	101
CC(Sc1nc(N2CCOCC2)c2c(c1C#N)CC(C)(C)OC2)C(=O)Nc1ccccc1 (stereo not given)	111
CN(C)/C=N/NS(=O)(=O)c1ccccc1	87
CCN(CC)S(=O)(=O)c1ccc(C(=O)NCCn2c(C)cc3ccccc32)cc1	99
CN1C=C(C(N)=O)C=C/C1=C(/C#N)c1nc2ccccc2s1	96
COCc1nnc(NC(=O)/C=C/c2ccc(OC)cc2)s1	102
CN(C(Cc1ccc(OOSOc2cccc3cnccc23)cc1)C(=O)N1CCN(c2ccccc2)CC1)S(=O)(=O)c1cccc2cnccc12 (stereo not given)	117
COC(=O)c1scc(C)c1NN1C(=O)c2ccccc2C1=O	95
COc1ccc(CCC(=O)Nc2ccc(-c3noc(-c4ccccc4Br)n3)cc2)cc1	96
CSc1nnc(-c2ccccc2O)n1-c1ccccc1	100
O=C(c1ccco1)c1cc2cc(Br)ccc2oc1=O	91
C[N+]1(C)CCN(c2ccccc2)CC1	97&98
CCOc1ccc(OCC(=O)NCCc2nc3ccccc3[nH]2)cc1	106
O=C1C(=Cc2cn[nH]c2-c2ccccc2)C(=O)c2ccccc21	85
CCN(CCO)c1nc(NC2CCCCC2)c2cnn(C)c2n1	88
CCCCNC(=O)c1ccccc1NC(=O)CC	90
Fc1ccc(C2CCNCC2COc2ccc3c(c2)OCO3)cc1 (stereo not given)	100
NS(=O)(=O)c1ccc(CCNC2CC(=O)N(Cc3cccs3)C2=O)cc1 (stereo not given)	98
COc1ccc(CCNC(=O)CSc2ccc(-c3ccco3)nn2)cc1	95
Cc1cc(/C=C(/C#N)c2ccc(C(=O)O)cc2)c(C)n1-c1ccc(S(N)(=O)=O)cc1	89
CCCN(Cc1c(F)cccc1F)CC1CC1	102

Given field by field: entries from further up
O=C1C(=Cc2cn[nH]c2-c2ccccc2)C(=O)c2ccccc21
  RVFV N-RNA inh: 85

COc1ccc(CCNC(=O)CSc2ccc(-c3ccco3)nn2)cc1
  RVFV N-RNA inh: 95

COC(=O)c1scc(C)c1NN1C(=O)c2ccccc2C1=O
  RVFV N-RNA inh: 95

Cc1cc(/C=C(/C#N)c2ccc(C(=O)O)cc2)c(C)n1-c1ccc(S(N)(=O)=O)cc1
  RVFV N-RNA inh: 89

Continuation:
SMILES	RVFV N-RNA inh
Cc1c2c(n3c(nc4ccccc43)c1C#N)SCC2	98
CCOC(=O)c1sc(NC(C)=O)cc1C	100
Cc1nc2ccccc2c(=O)n1NC(=O)C1CCCCC1	101
Cc1nnc(SCC(=O)N2CCCC2)s1	101
COc1ccc2oc(=O)c(C(=O)NCc3ccc4c(c3)OCO4)cc2c1	110
COc1ccc(/C=N/n2c(=S)[nH]nc(C)c2=O)cc1	100
CN(C(=O)C1CC1)c1ccccc1C(=O)NCc1ccccc1	93
O=C(Cn1c2c(c(=O)n3ncnc13)CCC2)N/N=C/c1cccnc1	98
COC(=O)C1=C(N)Oc2c(oc(CO)cc2=O)C1c1cccc(OC)c1 (stereo not given)	96
Cn1nc(C2CC2)cc1NC(=O)Nc1ccc(OC(F)(F)F)cc1	96
Cc1c(C#N)sc2ccccc12	101
Cc1coc(NC(=O)CSc2nc(-c3ccc(Cl)cc3)cc(C(F)(F)F)c2C#N)n1	99
CC(=O)c1c(CC(=O)O)[nH]n(-c2nc3ccccc3s2)c1=O	96
O=C1c2ccccc2CN1CCSC(=S)N1CCCC1	91
Cc1ccnc(SCc2cc(=O)c(OC(=O)c3ccco3)co2)n1	96
O=C(CN1CCCCC1)Nc1ccccc1	100
CCOC(=O)c1sc(NC(=O)CC)c(C#N)c1C	92
C/C(O)=C(\C#N)P(C)(=O)OC(C)C (stereo not given)	107
O=C(NC1CC(=O)N(c2ccc3c(c2)OCCO3)C1)c1ccc2ccccc2c1 (stereo not given)	96
CCC(C)NC(=O)c1ccccc1NC(=O)Nc1ccccc1 (stereo not given)	94
O=C(O)c1cccc(-n2ncc(Cl)c(Cl)c2=O)c1	103
COC(=O)CC(C(=O)Nc1ccc(C)cc1Br)N1CCN(C)CC1 (stereo not given)	103
Nc1nc2sc3c(c2c(=O)s1)CCCC3	92
Cc1nc2ccccc2c(=O)n1-c1cccc(NC(=O)c2ccc3c(c2)OCO3)c1	85
C/C(=C\c1ccccc1)C(=O)NCCCn1ccnc1	88
CCOC(=O)CC1(O)CSc2nc3sc4c(c3c(=O)n21)CCCC4 (stereo not given)	99
Cc1ccc(N(C(=O)c2ccc(Br)o2)C(=O)N2CCCCC2)cc1	88
COc1ccc(OCC(O)CNC(=O)Nc2cc(F)ccc2C)cc1 (stereo not given)	95
c1cc(CN2CCCCC2)cc(OCCCNc2nc3ccccc3s2)c1	92
CC(C)OC(=O)CSc1nnc(-c2cnccn2)n1-c1ccccc1	97

Structures listed so far containing a Cl atom (2):
SMILES	RVFV N-RNA inh
Cc1coc(NC(=O)CSc2nc(-c3ccc(Cl)cc3)cc(C(F)(F)F)c2C#N)n1	99
O=C(O)c1cccc(-n2ncc(Cl)c(Cl)c2=O)c1	103

More compounds follow.
SMILES	RVFV N-RNA inh
O=C(O)c1cc(NC(=O)C2CC2)cc(NC(=O)C2CC2)c1	93
Nc1n[nH]c(Cc2ccccc2)c1-c1ccccc1	92
O=C(c1ccccc1)N1CCCCC1	100
CC(=O)Nc1ccc(OC(=O)c2cccs2)cc1	95
Cn1c(O)c(C2=c3ccccc3=NC2=O)c2ccccc21	97
CCCCC#Cc1cncc(C(=O)O)c1	91
S=C(Nc1ccccc1)N1CCn2cccc2C1c1cccs1 (stereo not given)	98
COc1ccc(CC(=O)Nc2cccc(-c3ccc4nncn4n3)c2)cc1	95
CC(C)Oc1ccc(C(=O)NC(=S)N2CCOCC2)cc1	111
CC(=O)Oc1cc2c3c(c(=O)oc2cc1C)CCCC3	106
O=C(c1ccco1)N1CCN(C(=O)C2CC(=O)N(c3ccccc3)C2)CC1 (stereo not given)	92
CC(CO)(CO)NC(=O)Cc1cc(=O)[nH]c(=O)[nH]1	100
O=C1NCCc2c(OCC(=O)N3CCCc4ccccc43)cccc21	95
Cc1ccccc1C(=O)Oc1ccc(C#N)cc1	95
CC(=O)Oc1ccccc1-c1ccccc1	86
CC(C)(C)NC(=O)Nc1ccccc1SCCC#N	98
CCN(C(=O)CCN1C(=O)c2ccccc2C1=O)c1ccccc1	99
Cc1sc(NC(=O)c2ccco2)c(C2=CC(=O)N(c3ccccc3)C2=O)c1C	92
O=C(NCC(c1cccs1)S(=O)(=O)c1cccs1)NC1CCCCC1 (stereo not given)	95
O=C(O)c1cn(-c2ccc(F)cc2)c2cc(N3CCNCC3)c(F)cc2c1=O	98
C[C@]12CC[C@H]3[C@@H](CCC4=CC(=O)CC[C@@]43C)[C@@H]1CC[C@@H]2O	95
Cc1ccc(C(=S)N2CCOCC2)cc1	99
C=CCNC(=S)Nc1cccc(NC(=O)CC(NCc2ccco2)C(=O)O)c1 (stereo not given)	95
O=c1c2c3c(sc2n2cnnc2n1Cc1ccccc1)CCCC3	84
O=C(CCC1COc2ccccc2O1)Nc1ccccn1 (stereo not given)	93
Cn1nccc1NC(=S)Nc1ccc(Cl)cc1	100
C=CCN1C(=O)/C(=C\c2ccc(N3CCOCC3)cc2C)C(=O)NC1=S	92
CC(CCc1ccccc1)NC(=O)NC1CC(=O)N(c2ccccc2)C1 (stereo not given)	91
CCCCc1cc(=O)oc2c(CN3CCCC3)c(O)c(Cl)cc12	105
CCOP(=S)(Nc1cccc(F)c1)OCC	86
CC(N/C=C1\C(=O)C2(C)CCC1C2(C)C)c1ccccc1 (stereo not given)	97
Cc1nnc(SCCc2ccccc2)[nH]c1=O	97
CC(C)(C)C(=O)Nc1ccccc1NC(=O)C(C)(C)C	90
CN1C(=O)C(=Cc2cccn2C(C)(C)C)C(=O)N(C)C1=S	93
O=P(O)(CN1CCCCC1)C1CCCCC1O (stereo not given)	101
O=C(CSc1nccn1-c1ccc(F)cc1)Nc1ccccc1	92
CC(=O)O/N=C(\C)c1[nH]c(C)c(/C(C)=N/OC(C)=O)c1C	101
Cc1ccc(NC(=O)C2CC2)cc1NC(=O)C1CC1	100
N#CC1C(=S)NC2=C(CCCC2)C12CCCCC2 (stereo not given)	92
C=CCc1ccc(OCC(=O)ONN)c(OC)c1	104
O=C(O)C1=CCNCC1	100
O=C1NC(=O)/C(=C/c2ccc3c(c2)OC(F)(F)O3)S1	104&94
CCCOc1ccc(/C=C2\SC(=O)NC2=O)cc1	95
CCC(=O)Nc1ccccc1N1CCN(C(=O)CC)CC1	102
N#Cc1c(-c2ccco2)c2c([nH]c1=O)-c1ccccc1OC2	82

In another format: results already given
SMILES,RVFV N-RNA inh
O=C(O)C1=CCNCC1,100
CN1C(=O)C(=Cc2cccn2C(C)(C)C)C(=O)N(C)C1=S,93
CC(N/C=C1\C(=O)C2(C)CCC1C2(C)C)c1ccccc1 (stereo not given),97
Cc1ccc(NC(=O)C2CC2)cc1NC(=O)C1CC1,100

Six records picked at random from those above:
SMILES	RVFV N-RNA inh
Cc1nnc(SCCc2ccccc2)[nH]c1=O	97
O=C(O)C1=CCNCC1	100
O=P(O)(CN1CCCCC1)C1CCCCC1O (stereo not given)	101
O=C1NC(=O)/C(=C/c2ccc3c(c2)OC(F)(F)O3)S1	104&94
N#CC1C(=S)NC2=C(CCCC2)C12CCCCC2 (stereo not given)	92
CC(N/C=C1\C(=O)C2(C)CCC1C2(C)C)c1ccccc1 (stereo not given)	97

More entries.
SMILES	RVFV N-RNA inh
CCOC(=O)CN1C(=O)C(O)(CC(=O)c2ccc3c(c2)OCO3)c2ccccc21 (stereo not given)	107
CN[C@@H]1[C@@H](O)[C@@H](O[C@@H]2[C@@H](O)[C@H](O[C@H]3O[C@H]([C@@H](C)NC)CC[C@H]3N)[C@@H](N)C[C@H]2N)OC[C@]1(C)O	97
CCC(=O)Nc1ccc(NCc2ccccc2C)cc1	87
CC1(C)[C@H](C(=O)O)N2C(=O)C[C@H]2S1(=O)=O	99
COc1cc(C(=O)O)cc(I)c1OC1CCCC1	106
CCCCN1CCCCC1C(=O)Nc1c(C)cccc1C (stereo not given)	97
CC(C)S(=O)(=O)/C(C#N)=C/Nc1cccnc1	95
COc1ccc(C(=O)NCc2cn3ccccc3n2)cc1	111
CC(C)CNc1ncnc2c1cnn2-c1ccccc1	97
CCCC(CCC)C(=O)N1CCN(c2ccc(NCc3ccccc3)nn2)CC1	98
COC(=O)c1c(F)c(F)c(F)c(F)c1C(=O)OC	94
OC1(C(F)(F)F)CC(c2ccc3c(c2)Nc2ccccc2S3)=NN1 (stereo not given)	93
COc1ccc(/C=C2\CSc3ccccc3C2=O)cc1	96
Cc1cc(=O)oc(C)c1C(=O)OCC(=O)c1ccccc1	96
CSc1nc(C)cc(OCC(=O)NCCOc2ccc(C)cc2)n1	96
CSc1cccc(C(=O)Nc2sccc2C#N)c1	90
CCC(Sc1nnc(C)s1)C(=O)Nc1nccs1 (stereo not given)	114
COc1cc(C(O)CN)ccc1O (stereo not given)	93
O=S(=O)(c1ccc(-c2ccc(S(=O)(=O)N(CCO)CCO)cc2)cc1)N(CCO)CCO	92
COCC(C)NCc1cc(C)c(OC)cc1C (stereo not given)	102
CCN1C(=O)C(CC(=O)Nc2ccc(C(=O)OC)cc2)N(CCN2CCOCC2)C1=S (stereo not given)	92
CCOC(=O)c1cc(=O)c2ccc(OCC(=O)Nc3ccc4c(c3)OCCO4)cc2o1	90
COc1cc2sc(=NC(=O)CCS(=O)(=O)c3ccccc3)n(C)c2cc1OC	105
CC(=O)OC[C@H]1OC=C[C@@H](OC(C)=O)[C@@H]1OC(C)=O	98
COc1ccccc1N1CCN(CCCCNC(=O)c2ccc3ccccc3c2)CC1	100
O=C(Cc1cc(=O)[nH]c(=O)[nH]1)NCCN1CCOCC1	98
CCCOC1(NC(=O)c2ccccc2)C(C)=CC(=O)C=C1C	98
COC(=O)c1c(NC(=S)Nc2ccn(C)n2)sc2c1CCCC2	90
CCC(=O)NNc1nc2c(OC)ccc(OC)c2s1	87
O=C(Nc1ccc(C(F)(F)F)cc1)C1CCC1	100
CC1=CC(=C2C(=O)NC(=O)NC2=O)C=C(C)N1c1ccccc1	95
CCN1C(=O)/C(=C\c2cccs2)SC1=Nc1cc(C)on1	102
CSc1cccc(NC(=O)/C=C/c2ccccc2)c1	87
CC(Oc1ccc(Br)cc1)C(=O)N1CCCCC1 (stereo not given)	93
CCc1cc(CC)c(CO)c(CC)c1/C=N/O	97
O=C(O)COCCN1CCN(C(c2ccccc2)c2ccc(Cl)cc2)CC1 (stereo not given)	93&94
COC(=O)CCC(=O)Nc1ccc(Cl)cc1	98
C=CCn1c(=O)c2c3c(sc2n2c(Nc4ccccc4)nnc12)CCCC3	97
CC(C)S(=O)(=O)c1c(SCC#N)sc(C#N)c1N	100
CCOC(=O)C1C(=O)OC2(CCCCC2)C1C#N (stereo not given)	95
COc1cc(C(=O)Nc2ccc3c(c2)CCN3C(C)=O)cc(OC)c1OC	86
C=CCOc1cccc(C(=O)NCCC)c1	99
O=C(CSc1ccccn1)c1ccc(F)cc1	110
CCC(C)(C)NC(=O)c1cc(Cl)ccc1OC	95
CCOC(=O)c1c(-c2ccccc2)nc(=O)[nH]c1-c1ccc(-c2ccc(F)cc2)o1	90
CCc1ccc(NC(=O)C(OC)c2ccccc2)cc1 (stereo not given)	94
CC(C)(C)C(=O)NNc1ncnc2sccc12	102

Source: PubChem (ICCB-Longwood Screening Facility, Harvard Medical School)
